Screening results (PubChem BioAssay)
H5N1 antiviral: MDCK cell protection from H5N1 avian flu; cytopathic effect, luminescence, 72 h; hits give high values; no value below 0 was filed and about half of the inactive calls have no number; reference of the scale not given here; inhibition, % at 50 µM; 0.07% of 96,000 active; in the data active = inhibition above about 25%
* = called active by the depositor; i = inactive. The list is partial (hit frequency here may not be typical).

SMILES	H5N1 antiviral
COc1ccccc1NC(=O)C(Cc1ccc(Cl)cc1)c1nn[nH]n1 (stereo not drawn)	0.2
Cc1ccc(S(=O)(=O)N2CCN(c3nc(C)nc4sc5c(c34)CCC(C)C5)CC2)cc1 (stereo not drawn)	0.1
COc1ccc2nc(N3CCCC(C(=O)NCCCN4CCN(C)CC4)C3)sc2c1 (stereo not drawn)	0.3
C=CCn1c(SCc2ccc(OC)cc2)nnc1-c1cccnc1	i
Cc1cc(NC(=O)CCC(=O)N(CCC(C)C)CC(=O)NCC2CCCO2)no1 (stereo not drawn)	0.7
O=C(Oc1ccccc1)c1ccc(-n2cnnn2)cc1	0.2
CCOc1ccccc1-c1n[nH]c(=S)o1	i
Cc1nn(CC(=O)NCCc2ccc(Cl)cc2)c(C)c1[N+](=O)[O-]	0.3
CCCc1cc(=O)[nH]c(SCC(=O)Nc2cc3c(cc2C(C)=O)OCO3)n1	0.6
CCCCCNC(=O)C(C#N)c1nc2ccccc2nc1N1CCCC1 (stereo not drawn)	0.1
COc1cc(/C=C2/SC(=O)N(Cc3ccccc3Cl)C2=O)ccc1OCc1ccncc1	i
COc1ccc(-n2c(C)nc3cc(C(=O)O)ccc32)cc1	1.4
CCn1c2ccccc2c2cc(/C=N/NC(=O)c3ccccc3)ccc21	1.5
CC1(C)C(c2ccccn2)=[N+]([O-])C(C)(C)N1O	i
CCOc1ccc(-n2c(O)c(C=Nc3ccc(N4CCOCC4)cc3)c(=O)[nH]c2=O)cc1	0.8
O=C(CCN1CCCCC1c1cccnc1)NCc1ccccc1 (stereo not drawn)	1.8
Cc1n[nH]c(C)c1C(=O)CC1(O)C(=O)N(CCc2ccccc2)c2ccc(Br)cc21 (stereo not drawn)	0.0
Cc1ccc(-n2ncc3c(NCCCOC(C)C)ncnc32)c(C)c1	0.1
CCn1cc(C(=O)NCc2ccco2)c(=O)c2cc(S(=O)(=O)N3CCc4ccccc4C3)ccc21	0.9
CC(=O)Nc1ccc2nc(C3CCCCC3)[nH]c2c1	i
COC(=O)c1cc(=O)n(Cc2ccc3c(c2)OCO3)c(=Nc2ccccc2)s1	i
Cc1ccc(/C=C/C(=O)N2CC(C)CC(C)C2)o1 (stereo not drawn)	3.9
NC(=O)c1ccc(NS(=O)(=O)c2ccccc2F)cc1	i
COCC(C)n1c(C)cc(C(=O)COC(=O)c2ccc(N3CCCC3=O)cc2)c1C (stereo not drawn)	2.1
CCOC(=O)c1c(C)n(C)c2ccc(O)c(CN3CCN(C)CC3)c12	1.6
Next entries
SMILES	H5N1 antiviral
CC1CCCCN1C(=O)CSc1nnc(-c2cccnc2)n1C1CCCCC1 (stereo not drawn)	1.7
Cc1nc2ncnn2c(N2CCC(C(=O)NC3CCCC3)CC2)c1Cc1ccccc1	1.2
CCOC(=O)CSc1nnc(Cn2nnc(-c3ccccc3)n2)n1CC	i
CCc1ccc(NC(=O)C(C)Oc2nnc(-c3cccs3)c(-c3cccs3)n2)cc1 (stereo not drawn)	i
O=c1oc(-c2ccccc2[N+](=O)[O-])nc2ccccc12	0.2
Cc1ccc(-n2ncc3c2ncn2nc(-c4ccco4)nc32)c(C)c1	i
COc1ccc(C(C)(C)C)cc1NC(=O)c1ccoc1C	i
COc1ccc(OC)c(Nc2nc3nonc3nc2N2CCCCC2)c1	2.4
COCCN(C(=O)C1CCC1)c1nnc(-c2cccnc2)s1	1.0
COc1ccc(-c2nnc(SC)n2C)cc1	i
COc1cc(C2NC(=O)NC(O)(C(F)(F)F)C2C(C)=O)cc(OC)c1OC (stereo not drawn)	i
CC(=O)Nc1nnc(SCc2ccc(F)cc2)s1	i
CCC(=O)NC1=C(C#N)C2(CCCC2)Cc2ccccc21	i
CC(=O)N1CCN(C(=S)c2ccc(-c3ccc(Cl)cc3)o2)CC1	i
COc1ccc(C2=NCC(=O)N(CC(=O)NCc3ccco3)c3sc4c(c32)CCCC4)cc1OC	i
Cc1cc(N/C(=N\S(=O)(=O)c2ccc(F)cc2F)c2ccccc2)no1	i
O=C(NCc1cccnc1)c1cc(S(=O)(=O)N2CCCCC2)ccc1Cl	1.0
COc1ccccc1CNc1ncnc2nc[nH]c12	0.1
O=C(NCCc1ccncc1)Nc1ccccc1Cl	2.0
O=C1Nc2ccc(NS(=O)(=O)c3cccs3)c3cccc1c23	i
CCOc1nc(C)ccc1-c1noc(C)n1	i
CCOc1ccc(S(=O)(=O)NCCC(=O)NCc2ccco2)cc1	i
CCCn1c(N)c(N2CCCCC2)c(=O)n(CC(=O)Nc2ccc(OC(F)(F)F)cc2)c1=O	i
CCn1nnnc1SCC(=O)c1cc(OC)ccc1OC	0.0
CC(C)NC(=O)C1CCN(C(=O)c2cc3sccc3n2Cc2ccc(F)cc2)CC1	i
Additional entries:
SMILES	H5N1 antiviral
CC(C)(C)c1nnc2sc(SCC(=O)c3ccccc3)nn2c1=O	i
COC(=O)c1cc(Br)c(=O)n(-c2ccc(F)cc2)c1	0.5
Cc1ccc(S(=O)(=O)Nc2ccc3c(c2)ncn3C(C)(C)C)cc1	i
CC1=CC(=O)C=CC1(C)C(Cl)(Cl)Cl (stereo not drawn)	0.3
CC1=C(C(=O)Nc2cc(C)ccc2C)C(c2cccs2)NC(=S)N1 (stereo not drawn)	i
CCOC(=O)C(C(=O)OCC)C(Nc1cccc(Br)c1)c1ccccc1 (stereo not drawn)	i
CCOc1nc2ccccc2nc1C	0.1
Cc1nnc(NC(=O)COc2ccccc2)s1	0.8
CCOC(=O)c1ccc(NC(=O)C2CC2)cc1	i
Cc1csc2nc(CNC(=O)c3cccc(C(F)(F)F)c3)cn12	i
c1cn(CCCNc2ncnc3sc4c(c23)CCC4)cn1	1.2
CCN(c1ccccc1)c1cc(C)nc2ncnn12	0.1
CCOc1ccc(C2CC(=O)NC(SCC(=O)OC)=C2C#N)cc1 (stereo not drawn)	2.2
CCC(=O)N(Cc1cc2cc(OC)ccc2[nH]c1=O)c1ccccc1C	0.9
Cn1c(N)c(C(=O)COC(=O)C2(c3ccc(Cl)cc3)CCCC2)c(=O)n(C)c1=O	0.7
N#C/C(=C\C=C\c1ccccc1[N+](=O)[O-])c1nc(-c2ccc3c(c2)OCO3)cs1	i
COc1ccc(Cc2nnc(SCC(=O)c3ccccc3)o2)cc1	0.4
CCc1ccc2c(c1)C1(SC(NC(C)=O)=NN1C(C)=O)C(=O)N2C(C)C (stereo not drawn)	0.2
COc1ccc(C(=O)OCCNC(=O)c2c(Cl)nc3ccccn23)cc1	i
Cc1ccc(S(=O)(=O)NC(CC(C)C)C(=O)Oc2ccc3c4c(c(=O)oc3c2)CCC4)cc1 (stereo not drawn)	0.2
C=C(C)Cc1c(C)nc(-c2ccccc2)[nH]c1=O	i
O=C(c1ccc(S(=O)(=O)N2CCCCCC2)cc1)N1CCN(c2ccccn2)CC1	0.8
COc1ccc(NC(=O)C2CC(=O)n3ncnc3N2)cc1 (stereo not drawn)	i
Cc1nc(NNC(=O)c2ccc([N+](=O)[O-])cc2)cc(-c2ccccc2)n1	i
CC(c1ccco1)N(C(=O)COc1ccccc1[N+](=O)[O-])c1ccccn1 (stereo not drawn)	0.7
Later entries:
SMILES	H5N1 antiviral
COCCN1Cc2cccc(C(=O)Nc3cccc(C)c3C)c2C1=O	0.9
O=C(c1c(F)cccc1F)N(Cc1ccccn1)C1CC1	1.5
CC(=O)Nc1cc(NC(=O)CCCC(=O)O)ccc1Cl	i
Cc1cc(N(C)C)cc(C)[n+]1[O-]	1.1
COC(=O)c1c(NC(=O)CSc2nnnn2-c2ccc3c(c2)OCO3)sc(C)c1C	1.7
CC(NC(=O)c1ccco1)C(=O)OCc1cccc(Cl)c1 (stereo not drawn)	i
CNC(=O)c1cc(S(=O)(=O)N(C)C)ccc1Cl	i
CC(C)CCOc1cccc(OCC(=O)N(C)C2CCS(=O)(=O)C2)c1 (stereo not drawn)	i
O=C(O)C1CCCCC1C(=O)NCCc1c[nH]c2ccccc12 (stereo not drawn)	0.8
O=c1cc(-c2ccccc2)nc2nc(CCc3ccccc3)[nH]n12	1.8
CCN(CCNS(=O)(=O)c1ccc2c(c1)oc(=O)n2C)c1ccccc1	1.6
N#C/C(=C\c1cn[nH]c1-c1ccccc1)C(=O)NC1CCCCCC1	0.8
O=C(NNS(=O)(=O)c1ccc(Br)cc1)c1ccncc1	0.7
CCN(CC)CCCC1(CN)OCCc2ccccc21 (stereo not drawn)	0.2
Cc1cc2ncn(-c3ncnc4sc5c(c34)CCCC5)c2cc1C	i
C/C(=N\OC(=O)NC(C)C)c1sc(-c2ccc(Cl)cc2)nc1C	i
C=CCOc1cccc(/C=N/NC(=O)C(=O)NCc2ccco2)c1	i
COn1c(SCC(=O)N(C)C)nc2ccccc2c1=O	0.6
O=C1NCC(COCc2ccccc2)O1 (stereo not drawn)	0.8
CC(=O)c1ccc(N2CCN(C(=O)C3(S(=O)(=O)c4ccc(Cl)cc4)CC3)CC2)cc1	i
COC(=O)c1ccc(OCCOc2ccccc2)cc1	0.1
COCCn1c(C)cc(C(=O)CSc2n[nH]c(N)n2)c1C	0.2
Cn1c(=O)c2c(n(Cc3ccccc3)c1=O)NC(=O)C2CC(=O)NCc1cccc(Cl)c1 (stereo not drawn)	i
CC1(C(=O)CSc2nc3ccccc3[nH]2)CCC(=O)O1 (stereo not drawn)	i
Cn1cnnc1SCC(=O)c1ccc2c(c1)CCCC2	1.3

Given with each value named: three of the compounds above.
CC(NC(=O)c1ccco1)C(=O)OCc1cccc(Cl)c1 (stereo not drawn)
  H5N1 antiviral = i
COn1c(SCC(=O)N(C)C)nc2ccccc2c1=O
  H5N1 antiviral = 0.6
CNC(=O)c1cc(S(=O)(=O)N(C)C)ccc1Cl
  H5N1 antiviral = i

The listing picks up, starting 7 compounds before the break.
SMILES	H5N1 antiviral
O=C1NCC(COCc2ccccc2)O1 (stereo not drawn)	0.8
CC(=O)c1ccc(N2CCN(C(=O)C3(S(=O)(=O)c4ccc(Cl)cc4)CC3)CC2)cc1	i
COC(=O)c1ccc(OCCOc2ccccc2)cc1	0.1
COCCn1c(C)cc(C(=O)CSc2n[nH]c(N)n2)c1C	0.2
Cn1c(=O)c2c(n(Cc3ccccc3)c1=O)NC(=O)C2CC(=O)NCc1cccc(Cl)c1 (stereo not drawn)	i
CC1(C(=O)CSc2nc3ccccc3[nH]2)CCC(=O)O1 (stereo not drawn)	i
Cn1cnnc1SCC(=O)c1ccc2c(c1)CCCC2	1.3
CN(Cc1cccs1)C(=O)COc1ccc(-c2nnco2)cc1	i
c1ccc(CNc2ncnc3nc[nH]c23)cc1	0.3
O=C(O)CCc1ccc(-c2cccs2)n1NC(=O)c1ccc(O)cc1	i
N#CC(c1cccc(Cl)c1)c1ncc(C(F)(F)F)cc1Cl (stereo not drawn)	0.2
CN(CCCNC(=O)c1cccn2c(=O)c3ccccc3nc12)Cc1ccccc1	i
CN1CCN(CC(=O)Nc2ccc(Oc3ccccc3)cc2)CC1	i
COC(=O)Cc1c(C)nc2nc(NCc3ccc(Cl)cc3)[nH]n2c1=O	i
COc1ccc(CCn2nnnc2C(CC(C)C)N2CCC(C(N)=O)CC2)cc1OC (stereo not drawn)	0.7
CC1=C(C(=O)OCCOC(C)C)C(c2cc3c(cc2Br)OCO3)CC(=O)N1 (stereo not drawn)	1.3
COC(=O)c1[nH]c2ccc(Cl)cc2c1NC(=O)C1CC1	i
COc1cccc(N2CC(O)=C(c3ccccc3)C2=N)c1	i
N=c1ccn(CC(=O)NC(N)=O)c2ccccc12	i
COc1cc(/C=N/NC(=O)CN2CC(c3ccccc3)CC2=O)ccc1OC(=O)N(C)C (stereo not drawn)	i
Cc1ccc(NC(=O)Cn2cnc3sc(C(=O)NCc4ccco4)c(C)c3c2=O)cc1Cl	i
O=C(CC1C(=O)OCN1C(=O)OCc1ccccc1)OCC(=O)c1ccccc1 (stereo not drawn)	0.8
COCc1c(C(=O)N2CCN(c3ccc(C(F)(F)F)cn3)CC2)oc2ccccc12	i
CCCCNC(=O)Nc1ccc(Br)cn1	i
COc1ccc(Cl)cc1NC(=O)CCN1CCN(C)CC1	1.1
CCC(=O)N1CC23C=CC(CC2CC12CCCCC2)O3 (stereo not drawn)	i
CCC(C)(C)NC(=O)c1ccc(S(=O)(=O)N(C)c2ccccc2OC)cc1	3.2
Nc1c(C(=O)NCCN2CCOCC2)c2nc3ccccc3nc2n1CCc1ccccc1	i
CC(C)c1nc2oc3c(=O)[nH]cnc3c2c2c1CCC2	3.5
O=c1cc(-c2ccccc2)[nH]n1-c1ccc([N+](=O)[O-])cc1	i
Cn1c(SCc2nnc(-c3ccccc3Br)o2)nc2sc3c(c2c1=O)CCC3	0.4
COc1ccc(S(=O)(=O)N(C)CC(=O)NC2CCCCC2)cc1OC	0.3

Ordered by length of the SMILES (rising): four of the compounds above.
SMILES	H5N1 antiviral
COc1ccc(Cl)cc1NC(=O)CCN1CCN(C)CC1	1.1
COC(=O)Cc1c(C)nc2nc(NCc3ccc(Cl)cc3)[nH]n2c1=O	i
O=c1cc(-c2ccccc2)[nH]n1-c1ccc([N+](=O)[O-])cc1	i
COc1cc(/C=N/NC(=O)CN2CC(c3ccccc3)CC2=O)ccc1OC(=O)N(C)C (stereo not drawn)	i

(more compounds)
SMILES	H5N1 antiviral
O=C(COc1ccc(Cl)cc1Cl)NCCC1=CCCCC1	1.7
Cc1nn(C)c(Oc2cccc(Cl)c2)c1C(=O)O	0.2
CCCCN1CC(C(=O)NC2CCCCC2)CC1=O (stereo not drawn)	0.1
COc1ccc(OC)c(NC(=O)CSc2nnc(Cn3nnc4ccccc43)n2C)c1	1.4
COc1cnc(-c2ccccn2)nc1Sc1cccc(Cl)c1	4.7
COc1ccc(OC)c2[nH]c(=O)c(CCNC(=O)COc3ccccc3)cc12	0.1
COc1ccc(-c2nc(-c3ccccc3)no2)c(OC)c1	i
COc1ccc(-c2cc(C(F)(F)F)nc(SCCC(=O)NCc3ccco3)n2)cc1	2.0
O=C(O)C1C2C=CC3(CN(Cc4ccncc4)C(=O)C13)O2 (stereo not drawn)	i
CCCCn1c(SCC(=O)N2CCC(C)CC2)nc2ccsc2c1=O	2.2

An excerpt of these results, with bars between the fields.
SMILES | H5N1 antiviral
CCCCn1c(SCC(=O)N2CCC(C)CC2)nc2ccsc2c1=O | 2.2
CCCCN1CC(C(=O)NC2CCCCC2)CC1=O (stereo not drawn) | 0.1
Cc1nn(C)c(Oc2cccc(Cl)c2)c1C(=O)O | 0.2
O=C(O)C1C2C=CC3(CN(Cc4ccncc4)C(=O)C13)O2 (stereo not drawn) | i
